Screening results: PubChem BioAssay, several laboratories
UUG fidelity: modulators of yeast start codon fidelity, primary screen, whole organism, S. cerevisiae, single point, plate reader; activity score, % at 18.7 µM; 350,000 compounds, 0.13% hits; S. cerevisiae UUG-firefly luciferase reporter, luminescence/redox ratio;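 active = replicate mean at a twofold rise or more, about +100% in these data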;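 also: firefly luciferase made from a UUG start codon reports start codon fidelity; reporter light over untreated wells divided by growth signal over untreated wells; some hits fall short of that in this replicate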
CSC inhib: cancer stem cell viability inhibitors, primary screen, luminescence. cancer stem cell-like cells viability. inhibition, % at 7.5 µM. 300,000 compounds, 1.1% hits. AID 2717, 2010;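 active = mean at 75% or more and at least half the replicates too; tested in HMLE shEcad cells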;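 also: 0% = median of negative and 100% = median of positive control wells; the first replicate is given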
eIF4H inh: human eIF4H binding inhibitors, primary screen, translation initiation inhibitor project, biochemical, uHTS, fluorescence polarization. Eukaryotic translation initiation factor 4H (Homo sapiens), Q15056. inhibition, % at 35 µM. 290,000 compounds, 0.94% hits. eIF4H fluorescence polarization binding assay. AID 2012, 2009;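 active = 50% or more with normal probe brightness, or confirmed in later tests; about a fifth of its hits are not listed in these tables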;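 also: calls also rest on retests at 20 µM and on dose response follow-up; 0% = protein and probe with vehicle and 100% = probe without protein; strong numbers were not always called active; many hits fall short of the cut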
MT1-MMP act inh: blockers of MT1-MMP proenzyme processing, primary screen, HT1080 RFP-PRO-GFP cells, GFP/RFP fluorescence. 360,000 compounds, 0.061% hits. GFP/RFP ratio change, % at 20 µM. GFP/RFP ratio fluorescence, overnight; percent of plate control window, DMSO zero. Matrix metalloproteinase-14 (Homo sapiens), P50281;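 active = GFP/RFP ratio change of at least 30% with cell ATP level not reduced by more than half and red fluorescence within 50% of control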; also: strong numbers were not always called active
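Assay system: RFP-PRO-GFP reporter HT1080 cells; read-out basis: GFP/RFP fluorescence ratio; benchmarks: DMSO wells and RFP-L50D-GFP cells; doses: 20 µM single dose, 1% DMSO; schedule: overnight cell settling, then overnight compound exposure, 37 °C, 5% CO2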
HIV Env fusion: inhibitors of HIV-1 Env-driven cell-cell fusion, primary screen, HeLa-JRFL effector, CEM21 target cells, luciferase; 360,000 compounds, 1.1% hits; inhibition, % at 12.3 µM;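 active = mean replicate inhibition score of at least 50 and every replicate individually at or above 50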;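 also: 0% = plate neutral controls and 100% = maraviroc near 300 nM; one replicate is shown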
Rce1 inhib: yeast Rce1p protease inhibitors, primary screen, biochemical, fluorescence, cell-free homogeneous; CAAX prenyl protease 2 (Saccharomyces cerevisiae (strain ATCC 204508 / S288c)), Q03530; yeast membranes, quenched prenylated peptide cleavage fluorescence; calls only; 290,000 compounds, 0.27% hits; AID 2563, 2010;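 active = fall in fluorescence gain of 50% or more versus controls, with final raw signal at or below 3038400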;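 also: plate controls were neutral control wells for no effect and wells lacking membranes for full effect; tested at 10 µM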
Target sequence (Q03530 whole entry, looked up): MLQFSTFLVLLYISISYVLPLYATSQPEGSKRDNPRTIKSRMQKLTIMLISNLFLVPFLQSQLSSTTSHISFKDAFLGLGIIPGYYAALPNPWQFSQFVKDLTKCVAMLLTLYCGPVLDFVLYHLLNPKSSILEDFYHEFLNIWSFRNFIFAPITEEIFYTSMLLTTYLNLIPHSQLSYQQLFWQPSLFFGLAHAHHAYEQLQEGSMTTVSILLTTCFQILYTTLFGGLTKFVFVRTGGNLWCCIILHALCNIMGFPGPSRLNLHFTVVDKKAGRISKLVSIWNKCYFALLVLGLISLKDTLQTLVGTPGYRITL
PABP FP inh: PABP poly(A) RNA binding inhibitors, primary screen, biochemical, fluorescence polarization, uHTS. Polyadenylate-binding protein 1 (Homo sapiens), P11940. inhibition, % at 35 µM. 290,000 compounds, 1% hits. AID 2014, 2009;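 active = 50% or more with normal probe brightness, or confirmed in later tests; about a fifth of its hits are not listed in these tables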;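 also: calls also rest on retests at 20 µM and on dose response follow-up; controls were probe without protein and protein plus probe with vehicle; some compounds called inactive have numbers as strong as hits; many hits fall short of the cut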
eIF4H inh retest: also measured in eIF4H inh; calls as there; inhibition, %; compound at 20 µM; confirmation average;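 mean of two retest wells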
PABP FP inh retest: also measured in PABP FP inh; calls as there; inhibition, %; compound at 20 µM; confirmation repeats;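 mean of two retest wells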
MT1-MMP act inh RFP: also measured in MT1-MMP act inh; calls as there; RFP signal change, %; measured here: RFP expression control read;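 0 = vehicle wells; hits needed this value within 50% of zero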
* marks the source's active call; other numbers are inactive results; i = inactive; . = not tested or not shown.

SMILES	UUG fidelity	CSC inhib	eIF4H inh	MT1-MMP act inh	MT1-MMP act inh RFP	HIV Env fusion	Rce1 inhib	PABP FP inh	others
O=S(=O)(Nc1nccs1)c1ccc(Nc2nnc(-c3ccccc3)c3ccccc23)cc1	.	-8	9	9	1	14	i	-5
COc1ccccc1CNC(=O)C(C)Sc1ccsc1[N+](=O)[O-] (centres undefined)	.	-6	-6	-1	-2	-6	i	-14
COc1cccc(CNC(=O)C2CCN(S(=O)(=O)N3CCCC3)CC2)c1	-19	-5	4	1	2	.	i	-6
O=C1SC(Cc2ccccc2)C(=O)N1c1ccccc1 (centres undefined)	-21	7	-6	1	-4	-4	i	-4
COc1ccc(CC(NC(C)=O)C(=O)NC2CCN(c3nnnn3-c3ccccc3)CC2)cc1OC (centres undefined)	.	-3	2	.	.	.	i	-2
C=C1CCN([C@@H](Cc2ccccc2)C(=O)O)S(=O)(=O)c2ccccc21	-24	-7	.	0	1	-4	i	.
COC(/C=C/Nc1ccc(C)cc1)=C(C#N)C#N	-9	-9	-1	8	-2	.	i	0
CCn1ncc(/C=N\NC(=O)c2cc(-c3ccc(C)cc3C)nc3ccccc23)c1C	-14	2	-7	-1	-8	-146	i	-13
NC(=O)COC(=O)c1cccnc1Nc1ccccc1F	-16	-8	8	3	5	-45	i	-9
COc1ccc(F)c(CN(C)CC2CCCN(CCc3ccc(F)cc3)C2)c1 (centres undefined)	-23	50	-6	2	0	12	i	-5
CC[C@@H](C)C(C(=O)N1CCN(C(=O)OC(C)(C)C)CC1)n1cc(-c2cn([C@@H](C)C(=O)N3CCN(C(=O)OC(C)(C)C)CC3)nn2)nn1 (some centres undefined)	10	7	-2	-2	1	24	i	-13
CCn1ncc(CN2CCCC(C(=O)Nc3cccc(-c4cc5ccccc5[nH]4)c3)C2)c1C (centres undefined)	-13	20	-6	4	-1	-5	i	-3
COc1ccc(S(=O)(=O)N2CCC3(CC2)OCCN3S(=O)(=O)c2c(C)cc(C)cc2C)cc1	-16	3	.	-8	-22	19	i	.
COC(=O)CNc1n[nH]c(=S)[nH]c1=O	-24	0	5	0	1	.	i	8
CCOC1=NN(c2ccc(Cl)cc2)C(=O)/C1=C\N(C)C	.	-1	-1	2	2	18	i	-10
CCOP(=O)(OCC)C(NC(=O)C(F)(F)F)c1ccccc1 (centres undefined)	.	0	-9	6	6	-2	i	-8
COc1cc(/C=C2/SC(=S)N(CC(=O)NC(C)(C)C)C2=O)cc(OC)c1OC	-1	3	-9	3	-1	1	i	-8
COc1ccc(CCc2cc(OC)cc(=O)o2)cc1	-14	-3	-2	0	1	.	i	17
COc1ccc(NC(=O)C2(C)Cc3c(-c4cccc(NC(C)=O)c4)ccnc3O2)cc1OC (centres undefined)	-1	.	.	-1	-6	-17	.	.
CN(C)c1nc(NC(C)(C)C)nc(NC(C)(C)C)n1	.	4	3	-10	-6	3	i	-2
COc1cc(/C=C2\CC/C(=C\c3cc(OC)c(O)c(OC)c3)C2=O)cc(OC)c1O	.	86*	56	49	58	77*	.	3	eIF4H inh retest=-11;PABP FP inh retest=41
O=C1[C@@H](Oc2ccccc2)[C@@H](c2ccncc2)N1c1ccccc1	-12	.	.	-1	-9	i	.	.
O=C(Cc1csc(-c2ccc(Cl)cc2)n1)Nc1cccc(S(=O)(=O)NC2=NCCC2)c1	4	1	.	2	-11	.	.	.
CC(C)(C)c1ccc(C(=O)NCC(=O)N2CCC3(CC2)NCCc2[nH]cnc23)cc1	-20	-10	2	-1	-1	-4	i	-7
CSc1ccccc1NC(=O)C1CCN(S(C)(=O)=O)CC1	-22	-15	-7	-5	2	-40	i	-6
O=C(O)c1cccc(Cn2c(Cl)c(/C=N/NC(=O)c3ccccc3O)sc2=O)c1	-6	-3	-10	-14	-4	-51	i	18
Cn1cc([N+](=O)[O-])c(C(=O)Nc2cnn(Cc3ccc(F)cc3)c2)n1	.	-2	-5	1	3	.	i	9
CCCCCCCC(=O)NNC(=O)c1ccc([N+](=O)[O-])cc1	.	-5	-3	4	1	34	i	-10
CCOc1cc(C(=O)N(C)c2ccccc2)cc(OCC)c1OCC	-14	-1	-8	-1	-1	.	i	-5
Cc1ccccc1NCC(=O)N/N=C/c1c(C)c(C(=O)c2ccc(Cl)cc2)n2ccccc12	.	-45	17	-4	-8	-4	i	-9
O=C(NNC(=O)c1ccccn1)c1ccc(OC(F)F)cc1	-40	33	.	6	2	.	.	.
Cc1ccccc1C1CCCN(Cc2nc(CC3CC3)no2)C1 (centres undefined)	5	-1	-10	-3	-4	3	i	3
Cc1ccc(NC(=O)CSC2=C(C#N)C(c3ccco3)C3=C(CC(C)(C)CC3=O)N2)cc1 (centres undefined)	-12	.	6	-1	-3	48	i	2
COc1ccc(S(=O)(=O)N2CCCC2)cc1Br	0	1	-2	-1	2	-147	i	-10
CCOC(=O)C1=C(C)NC(=S)NC1c1cc(C)sc1C (centres undefined)	-18	.	3	0	-3	5	i	-6
COc1ccc(N(CC(=O)NCc2ccccn2)S(=O)(=O)c2ccccc2[N+](=O)[O-])c(OC)c1	.	-18	10	1	4	-18	i	5
O=C1N(c2ccccc2C(F)(F)F)O[C@]1(c1ccccc1)C1CCCC1	-8	5	.	17	0	-4	.	.
O=C(Nc1cccc(S(=O)(=O)N2CCOCC2)c1)c1cccc(S(=O)(=O)N2CCCC2)c1	13	.	.	8	-3	11	.	.
CN(C(=O)CSc1nc(-c2cccs2)nc2ccccc12)C1CCS(=O)(=O)C1 (centres undefined)	-15	-13	.	3	2	i	.	.
CCc1cc2c(=O)n(Cc3ccco3)c(SCC(=O)N3CCCc4ccccc43)nc2s1	-23	30	-2	-5	-5	-25	i	19
CCN(C(=O)C1CCN(c2nc(-c3ccc(OC)cc3)no2)CC1)c1ccc(OC)cc1	-4	25	-2	-4	-27	60*	i	-3
Cc1ccc(C2/C(=C(/O)c3ccccc3)C(=O)C(=O)N2CCN2CCOCC2)o1 (centres undefined)	-7	-10	11	2	3	-92	i	15
O=C(CCCN1C(=O)c2ccccc2C1=O)Nc1ccc(Br)cn1	-15	-8	1	-6	-2	.	i	11
CCOC(=O)c1ccc(NC(=O)COc2ccc(-n3cnnn3)cc2)cc1	-10	5	33	1	3	.	i	16
CC(C)CN(C(=O)CN1C(=O)NC2(CCc3ccccc32)C1=O)C1CCS(=O)(=O)C1 (centres undefined)	-5	-17	.	-5	3	0	.	.
c1ccc(SCc2cc(-c3ccccc3)no2)cc1	.	-5	5	-4	-1	-55	i	13
CCC(=O)NC(Nc1cc(C)ccn1)(C(F)(F)F)C(F)(F)F	-16	-13	-12	-8	-1	.	i	-9
Cc1nc(NC(=O)COC(=O)C(NC(=O)c2ccco2)C(C)C)c(Cl)cc1Cl (centres undefined)	-13	-13	3	4	2	-130	i	10
Clc1ccc(Cn2ccc(-c3ccc4c(c3)OCO4)n2)cc1Cl	-20	-3	4	1	0	-29	i	-6
Cc1ccc(-n2ncc3c2CC(C)(C)CC3NC(=O)CCCN2CCCCC2=O)cc1 (centres undefined)	-13	-14	-8	-1	-2	-1	i	-2
CCOC(=O)c1ccc(NC(=S)Nc2ccc(Cl)cn2)cc1	.	-6	-19	3	4	-54	.	-8
Cc1cccc(-c2cccc3nccn23)c1	-13	.	.	0	3	-34	.	.
Cc1ccc(SC[C@H](CC(C)C)N2CCN(CCc3ccccc3)CCC2=O)cc1	8	.	-2	4	-5	-9	i	4
O=C(NC1CCC(O)CC1)c1ccc(NS(=O)(=O)c2cccc([N+](=O)[O-])c2)cc1 (centres undefined)	-14	-1	.	1	3	1	.	.
CC1N(C(=O)N2CCOCC2)CCN1S(=O)(=O)c1cccc(C(F)(F)F)c1 (centres undefined)	-10	-5	1	-2	0	14	i	5
COc1ccc(Cn2nnnc2C(CC(C)C)N2CCN(c3ccccc3)CC2)cc1 (centres undefined)	-6	9	-3	-9	-11	.	i	-1
O=C(CCC(=O)Nc1cc(C(F)(F)F)ccc1Cl)N/N=C\c1cc([N+](=O)[O-])ccc1O	-13	16	8	-5	-5	6	i	-6
Cn1c(N)c(C(=O)COC(=O)c2cccs2)c(=O)n(C)c1=O	-16	-16	-2	0	0	.	i	-4
Cc1nnc(NC(=O)C2C3C=CC(O3)C2C(=O)O)s1 (centres undefined)	.	-1	20	.	.	.	i	15
Cc1cc(CN(C)Cc2cn(C)nc2-c2ccc(Oc3ccccc3)cc2)on1	.	0	-8	-4	-10	1	i	-9

Three compounds out of the list, ordered by molar mass, ascending:
SMILES	UUG fidelity	CSC inhib	eIF4H inh	MT1-MMP act inh	MT1-MMP act inh RFP	HIV Env fusion	Rce1 inhib	PABP FP inh	others
c1ccc(SCc2cc(-c3ccccc3)no2)cc1	.	-5	5	-4	-1	-55	i	13
CC1N(C(=O)N2CCOCC2)CCN1S(=O)(=O)c1cccc(C(F)(F)F)c1 (centres undefined)	-10	-5	1	-2	0	14	i	5
Cc1nc(NC(=O)COC(=O)C(NC(=O)c2ccco2)C(C)C)c(Cl)cc1Cl (centres undefined)	-13	-13	3	4	2	-130	i	10

Continuation.
SMILES	UUG fidelity	CSC inhib	eIF4H inh	MT1-MMP act inh	MT1-MMP act inh RFP	HIV Env fusion	Rce1 inhib	PABP FP inh	others
O=C(NCc1ccccc1)C1CCCN1C(=O)Nc1ccccc1[N+](=O)[O-] (centres undefined)	-5	.	-11	-1	0	-15	i	-9
OC(c1ccccc1)c1nc(-c2ccc3c(c2)OCO3)cs1 (centres undefined)	-11	.	.	-4	-5	-27	.	.
CCCN(CC1CC1)C(=S)NC(=O)C1CC1	-19	-20	2	-2	5	-3	i	0
Cc1sc(NC(=S)NC(=O)CCc2ccccc2)c(C(N)=O)c1C	.	57	58	9	0	-32	.	-2	eIF4H inh retest=-10;PABP FP inh retest=-1
Fc1cc(F)c2nc(N3CCCC3)sc2c1	.	-2	0	1	-5	5	i	5
CCCNC(=S)N1CCC(n2cnc3ccccc32)CC1	.	-17	-9	1	4	3	i	0
Cc1cc(NO)c(C(C)C)cc1N=O	.	2	-11	-13	-8	66*	i	-4
COc1ccc(CN2[C@@H](CC(=O)O)c3cc(C(F)(F)F)ccc3S2(=O)=O)cc1	23	-8	.	1	3	6	i	.
COc1cc(NC(=O)c2cccc3c(-c4cccnc4)coc23)cc(OC)c1OC	11	.	.	-7	-20	-8	.	.
COc1ccc(-c2n[nH]c(C)c2-c2cscn2)c(O)c1	-6	-6	-7	0	0	-10	i	12
Fc1ccc(-n2[nH]nnc2=S)cc1N1CCCC1	.	.	-6	-2	3	.	.	0
CCNC(=O)C12CCC(C)(C(=O)O1)C2(C)C (centres undefined)	-9	-3	-1	2	6	10	i	1
CCn1nc(C(=O)Nc2ccccc2N2CCCC2)c2ccccc2c1=O	7	16	.	-4	-7	9	i	.
CCOC(=O)/C(C#N)=C/c1cn(CCC(=O)O)nc1-c1ccc(OC)cc1	.	-11	-4	-2	3	1	i	-8
COc1ccc(CCNCC(O)COc2ccc(OC)cc2C(C)(C)C)cc1 (centres undefined)	-19	.	22	-5	-5	19	i	17
Cc1ccc(-c2nsc(SCC(=O)NCC3CCCO3)n2)cc1 (centres undefined)	.	-10	-10	0	-5	11	i	-20
N#C/C(=C\Nc1ccccc1O)c1nc2ccccc2o1	-22	49	-2	-3	-15	.	i	-13

Some of the compounds tested (hit frequency here may not be typical).
